Vaccinia Venus: inhibitors of vaccinia virus (Venus reporter). Potency, µM (series often up to 36.5 µM), for the others: at the highest dose activity change, negative = inhibition, hits mostly inhibitors. Vaccinia virus Venus reporter expression, fluorescence. AID 720580. actives 0.46% (n = 330,000); active means well fitted inhibition curve with a large enough effect; inconclusive means small, poorly fitted or top-dose-only effect; inactive means no such curve, though single readings can be large or run the other way; tested in A549 cells; note: nearly all actives have a fitted effect of over 30% in size; inactives centre near -10
VACV mCherry inh: vaccinia inhibition (mCherry reporter) | actives 0.63% (n = 310,000) | Vaccinia virus mCherry reporter infection, fluorescence; about a quarter of the inactives have no number | Potency, µM (series often up to 36.5 µM), for the others: at the highest dose activity change, negative = inhibition, most hits filed as inhibitors; active = well fitted inhibition curve with a large enough effect; inconclusive = small, poorly fitted or top-dose-only effect; inactive = no such curve, though single readings can be large or run the other way; tested in A549 cells; note: nearly all actives have a fitted effect of over 35% in size; inactives centre near -10
The depositor's hits bear a star; i = inactive; ? = inconclusive; / = no result given; & = joins results of further samples; [ ] = dose if it differs, or a comment. % is set by controls: 0 for no effect and ±100 for the full control effect; potency is the fitted concentration of half-maximal effect.

| Structure | Vaccinia Venus | VACV mCherry inh |
| --- | --- | --- |
| N#CC(CC(=O)OCc1ccccc1)NC(=O)OCc1ccccc1 (centres undefined) | -19% | i |
| O=C(O/N=C(\c1ccccc1)c1ccccn1)c1ccc(Cl)c(Cl)c1 | -13% | -9% |
| Cn1c(=O)c2c(nc(OC3CCCC3)n2C)n(C)c1=O | 1% | 45%[activator] |
| COc1ccc2cc(C#N)c(Nc3cccc(F)c3)nc2c1 | -6% | -21% |
| O=c1oc2ccccc2c(=O)c2ccccc12 | -5% | i |
| Cc1c(NC(=O)C(C)Oc2cccc(Cl)c2)c(=O)n(-c2ccccc2)n1C (centres undefined) | 3% | -6% |
| Cc1cccc2c(CCN)c[nH]c12 | -4% | -26% |
| CC(C)c1nnc(NC(=O)CCC(=O)NC2CCCCCC2)s1 | -1% | -10% |
| Cc1cccc(C)c1NC(=O)[C@@]1(CC(=O)O)CC(/C=C/c2ccccc2)=NO1 | -19% | i |
| COc1ccc(/C=C2/C(=O)N=C(N)N2C)cc1OC | -8% | -13% |
| CCc1ccccc1Nc1nn2c(=O)c3ccc(C(=O)NCc4ccc(C)cc4)cc3nc2s1 | -17% | -24% |
| CCCn1nc2cc(C(=O)NCc3ccccc3)ccc2c1OCC | -24% | -2% |
| COc1ccc(-c2[nH]ncc2CN2CCCOc3c(cccc3OC)C2)c(OC)c1 | -7% | ? |
| Cc1ccc(C)c(N2CCN(C(C(=O)NC3CCCC3)C(C)C)CC2)c1 (centres undefined) | -30% | i |
| Cc1nc2sc(C(c3ccc(F)cc3)N3CCN(C(=O)c4ccco4)CC3)c(O)n2n1 (centres undefined) | -10% | -14% |
| CCC(C)NS(=O)(=O)c1ccc(NC(=O)c2c(-c3ccccc3)noc2C)cc1 (centres undefined) | 1% | i |
| Cc1cccc(CN2C(=O)CN=C(c3ccccc3Cl)c3cc(Cl)ccc32)c1 | -2% | -9% |
| C#Cc1ccc(CN2CCC(Oc3ccc(C(=O)NCc4ccccn4)cc3)CC2)cc1 | -7% | i |
| c1ccc(OCc2nc(-c3ccncc3)no2)cc1 | 12% | -1% |
| Cc1cc(C)nc(NS(=O)(=O)c2ccccc2)n1 | -1% | -10% |
| COC(=O)c1cc(OC)c(OC)cc1NCC(=O)Nc1ccc(OC)c(OC)c1 | -8% | i |
| O=c1c2sccc2nc(SCc2cc(=O)n3cc(Cl)ccc3n2)n1-c1ccc(F)cc1 | -10% | -13% |
| Cc1cccn2c(=O)c3cc(S(=O)(=O)c4ccccc4)c(=N)n(Cc4ccc(F)cc4)c3nc12 | -6% | i |
| O=C(Nc1ccccn1)c1ccc(S(=O)(=O)N2CCCC2)cc1 | -12% | -8% |
| COC(=O)c1ccc(NC(=O)CN2C(=O)c3cccc4cccc2c34)cc1 | 1% | -14% |
| CCOc1ccccc1C1NC(=O)c2ccccc2O1 (centres undefined) | -10% | -1% |
| CCc1ccc(OCc2n[nH]c(=S)n2Cc2ccccc2)cc1 | -27% | -1% |
| CCc1nnc(NC(=O)CCC(=O)N2CCN(Cc3ccc(C)cc3C)CC2)s1 | -21% | i |
| CSCCC(NC(N)=O)C(=O)Nc1cccc(C#N)c1 (centres undefined) | -3% | i |
| CC12CCC3C(CC=C4CC(O)CCC43C)C1C/C(=C\c1cccc(F)c1)C2=O (centres undefined) | 1% | i |
| O=C(c1ccc(CS(=O)Cc2ccc(Cl)cc2)o1)N1CCN(c2ccccc2F)CC1 (centres undefined) | -21% | -3% |
| COc1cccc(C2c3c(oc4cc(C)cc(C)c4c3=O)C(=O)N2CCc2ccc(OC)c(OC)c2)c1 (centres undefined) | 17% | 15% |
| COC(=O)CCC(=O)Nc1c(C)n(C)n(-c2ccccc2)c1=O | -1% | i |
| Cc1nc(-c2cccc(S(=O)(=O)N3CC(C)CC(C)C3)c2)cs1 (centres undefined) | -17% | / |
| COc1cccc(COC(=O)c2nn(-c3ccccc3)nc2N)c1 | -19%&-7% | -2% |
| COc1cc(OC)c(NC(=O)CN(C)S(=O)(=O)c2ccc3c(c2)CCCC(=O)N3)cc1Cl | 1% | -2% |

7 compounds drawn at random from those above:
| Structure | Vaccinia Venus | VACV mCherry inh |
| --- | --- | --- |
| COC(=O)c1ccc(NC(=O)CN2C(=O)c3cccc4cccc2c34)cc1 | 1% | -14% |
| COc1ccc2cc(C#N)c(Nc3cccc(F)c3)nc2c1 | -6% | -21% |
| COc1cccc(COC(=O)c2nn(-c3ccccc3)nc2N)c1 | -19%&-7% | -2% |
| CC(C)c1nnc(NC(=O)CCC(=O)NC2CCCCCC2)s1 | -1% | -10% |
| CCCn1nc2cc(C(=O)NCc3ccccc3)ccc2c1OCC | -24% | -2% |
| C#Cc1ccc(CN2CCC(Oc3ccc(C(=O)NCc4ccccn4)cc3)CC2)cc1 | -7% | i |
| Cc1cccc(C)c1NC(=O)[C@@]1(CC(=O)O)CC(/C=C/c2ccccc2)=NO1 | -19% | i |

Other results:
| Structure | Vaccinia Venus | VACV mCherry inh |
| --- | --- | --- |
| Cc1cc(C)c(C)c(S(=O)(=O)NCCCN2CCOCC2)c1C | -20% | -19% |
| CC1CN(C(=O)CCC(=O)NCc2cccc(Cl)c2)c2ccccc2S1 (centres undefined) | -11% | -11% |
| Cc1ccc(-c2nnn(CC(=O)N(Cc3ccc(F)cc3)C(C(=O)NC3CCCC3)c3ccncc3)n2)o1 (centres undefined) | -6% | -4% |
| NS(=O)(=O)c1cccc2cccnc12 | -8% | i |
| Cc1ccc(C(=O)Nc2ccccc2C(=O)N2CCN(c3ccccc3)CC2)cc1 | -2% | -6% |
| Cc1ccc(NC2=NCC(=O)N2c2ccc3c(c2)OCCO3)c(C)c1 | -3% | -13% |
| COc1ccc(C(O)(C2CCCCC2)C(CN2CCCC2)c2ccccc2)cc1 (centres undefined) | ? | -29% |
| O=c1[nH]c(=O)n(Cc2ccccc2)c2nc(-c3ccco3)cc(C(F)(F)F)c12 | -6% | / |
| Cc1oc2c(c(C)cc3oc(=O)c(CC(=O)NCCc4ccc(Cl)cc4)c(C)c32)c1C | -6% | -4% |
| CCCCn1cnc2c([nH]c3ccccc32)c1=O | -19% | / |
| Cc1ccc(C2=NN(C(=O)CSc3nc4ncc(Cl)cc4[nH]3)C(c3ccco3)C2)cc1 (centres undefined) | -13% | i |
| Cc1ccc(N2CC(NC(=O)CCCc3ccccc3)CC2=O)cc1 (centres undefined) | -11%[7.34 µM] | -8%[7.34 µM] |
| CCOC(=O)c1c(C)oc(/N=C/c2ccccc2O)c1C#N | 7% | -9%[1.46 µM] |
| COc1ccccc1C(=O)N/C(=C/c1ccco1)C(=O)Nc1ccc(C(=O)O)cc1 | 6% | i |
| CCOC(=O)[C@@H]1[C@H]2COc3ccccc3[C@@H]2N2C(=O)N(c3ccc(F)cc3)C(=O)[C@@]12C | -11% | 0% |
| COC(=O)C(NS(=O)(=O)c1ccccc1Br)C(C)C (centres undefined) | -21% | i |
| COc1ccc(NC(=O)c2cc(C3CCCCN3C(=O)c3ccc(C#N)cc3)on2)c(C)c1 (centres undefined) | -1% | 1% |
| Cn1c(-c2ccc3c(c2)OCO3)c(C(=O)O)c(=O)c2ccccc21 | -5% | -7% |
| CCC(C)[C@H](NC(=O)[C@H](Cc1ccccc1)n1c(=O)[nH]c2ccccc2c1=O)C(=O)N1CCC(C(=O)O)CC1 (some centres undefined) | -5% | -5% |
| COc1cccc(NC(=O)CCc2c(C)nc3nc(CNC(=O)c4cccc(F)c4)nn3c2C)c1 | -4% | -2% |
| Cc1ccc(NC(=O)CN(C)C(=O)Nc2ccc(C)cc2)cc1 | -17% | i |
| Nc1ccc2nc(-c3ccccc3)[nH]c2c1 | -13% | -14% |
| O=[N+]([O-])c1cc(-c2ccccc2)cc([N+](=O)[O-])c1O | -10% | -14% |
| CCn1c(=O)c2c3c(sc2n2c(=S)[nH]nc12)CCC3 | -15% | / |

Complete entries, looked up by structure:
Listed for Cc1ccc(NC(=O)CN(C)C(=O)Nc2ccc(C)cc2)cc1 = Vaccinia Venus = -17%; VACV mCherry inh = i
Listed for COC(=O)C(NS(=O)(=O)c1ccccc1Br)C(C)C (centres undefined) = Vaccinia Venus = -21%; VACV mCherry inh = i

Next entries follow.
Compound | Vaccinia Venus | VACV mCherry inh
COCCCn1c(-c2ccc(OC)cc2)nc2c1c(=O)[nH]c(=O)n2Cc1ccccc1 | -8% | -11%
CCOC(=O)[C@]12CCCC=C1N(Cc1ccc3c(c1)OCO3)C(=O)[C@H](CC(=O)NCCCOC)C2 | 7% | 6%
CC(=O)Nc1ccc(SCC(=O)Nc2sccc2C#N)cc1 | 11% | -14%
COC(=O)c1ccc(-c2nc(CN3CCN(C(=O)c4ccco4)CC3)c(C)o2)cc1 | -13% | -3%
Cc1ccc(CNC(=O)c2ccc(S(=O)(=O)Nc3c(C)n(C)n(-c4ccccc4)c3=O)cc2)cc1 | -15% | -12%
CCN(CC)C(=O)c1ccc(NC(=O)c2cc(S(=O)(=O)N3CCCCCC3)ccc2OC)cc1 | -7% | -26%
O=c1[nH]c(O)c(C=NC2CCN(Cc3ccccc3)CC2)c(=O)[nH]1 | -16% | /
Cc1ccc(-c2nn(Cc3ccccc3)cc2C=O)cc1 | -17% | -5%
CCN(C)C1CN(Cc2cn(Cc3cc(C)cc(C)c3)nn2)S(=O)(=O)C1 (centres undefined) | 1% | i
COCCOC(=O)C1=C(N)Oc2c(oc(CO)cc2=O)C1c1c(F)cccc1Cl (centres undefined) | -4% | -10%
CC(=O)Nc1ccc(NC(=O)C2CC(=O)N(c3ccccc3Cl)C2)cc1 (centres undefined) | -11% | i
Cc1ccc2c(c1)C(c1ccccc1)N(C(=O)C(C)C)CC(=O)N2 (centres undefined) | -19% | -29%
CCC(=O)Nc1ccc(NC(=O)c2ccccc2Cl)nc1 | -9% | -10%
O=C(Nc1ccc(Cl)cc1Cl)c1cc2ccccc2o1 | -1% | -15%
CN(C)CCNC(=O)C(=O)NCC1OCCCN1S(=O)(=O)c1cccs1 (centres undefined) | -3% | -8%
Cc1sc2c(c1C)c(=O)n(-c1ccccc1)c(=O)n2CC(=O)c1ccc(Cl)cc1 | -14% | -14%
N#Cc1cc([N+](=O)[O-])ccc1Oc1ccc(-c2nnco2)cc1 | 2% | ?
CC1CCCCN1C(=O)CSc1nc(C2CC2)nc2c1cnn2-c1ccccc1 (centres undefined) | -2% | 7%
CC(=O)Nc1ccc(S(=O)(=O)N(C)CC(=O)OCC(=O)Nc2cccnc2Cl)cc1 | -9% | -4%
O=C(NNC(=O)c1ccccc1[N+](=O)[O-])c1ccc(NS(=O)(=O)c2cccs2)cc1 | -4% | -14%
CCOC1=C2[C@@H](CN(S(=O)(=O)c3ccc(C)cc3)[C@H]2c2ccccc2)[C@H]2C(=O)N(c3ccccc3)C(=O)[C@H]2C1 | -10% | 11%
COc1ccc(-n2c(SC)nc3ccccc3c2=O)cc1 | -17% | /
O=C(Cc1sc(Nc2ccccc2)nc1-c1ccccc1)NCc1ccccn1 | -11% | -22%
CCOc1ccc(C(=O)CCC(=O)NCC(=O)OCc2ccccc2)cc1OCC | 1% | 0%
O=C(CSc1nc2ccccc2s1)N/N=C/c1cc([N+](=O)[O-])ccc1O | 0% | ?
CN(C)S(=O)(=O)c1cccc(NC(=O)COC(=O)c2cc(=O)[nH]c(=O)[nH]2)c1 | 6% | i
Cc1cccc(-c2nsc(SCC(=O)NCc3ccc4c(c3)OCO4)n2)c1 | -17% | -18%
O=C1c2ccccc2C(=O)N1CCCCCCc1ccccc1 | -17% | i
Cn1c(N)c(C(=O)COC(=O)c2cc(C(F)(F)F)nc3ccccc23)c(=O)n(Cc2ccccc2)c1=O | -23% | i
CC1c2ccccc2SC(CCCN(C)C)c2ccccc21 (centres undefined) | -14% | -28%
NCc1csc(Nc2cc(Oc3ccccc3)ncn2)n1 | -5% | -8%
COC(=O)c1ccc(CN2CCN(Cc3ccc(C(=O)OC)o3)CC2)o1 | -13% | /
N#CCCN1CCN(S(=O)(=O)c2cc(Cl)ccc2Cl)CC1 | -11% | -1%
CC(c1ccon1)N(C)C(=O)CCc1nnc(CCCCc2ccccc2)o1 (centres undefined) | -11% | -4%
CCOC(=O)CSc1nc(-c2ccccc2)cc(C(F)(F)F)n1 | -10% | /
COC(=O)C1C2CC[C@@H](CC1OC(=O)c1ccccc1)N2 (some centres undefined) | -10% | i
COc1cc2c(cc1NC(=O)Nc1ccc(F)cc1)oc1ccccc12 | -18% | -21%
CC[C@H](C)[C@@H](COC=O)NC(=O)[C@H]1O[C@@H](n2ccc(N)nc2=O)[C@H](O)[C@@H]1O | 1% | 12%
C=CCN(Cc1ccc(Cl)s1)C(=O)c1ccc(F)c(S(=O)(=O)N2CCOCC2)c1 | -12% | -7%
NCCCCCC(=O)N/N=C/c1coc2ccccc2c1=O | -13% | -18%
CCn1c(C)[n+](CC)c2ccc(S(=O)(=O)N(C)C)cc21 | -10% | -9%
O=C(CCc1ccccc1)NNC(=S)NC(=O)c1ccccc1 | -10% | -4%
COc1ccc(S(=O)(=O)N2CCN(CC(=O)Nc3ccc(Cl)c(C(F)(F)F)c3)CC2)cc1 | -27% | -20%
O=C(COC(=O)Cc1cccc(F)c1)NC(=O)NC1CCCCC1 | 1% | -19%
COc1ccc(/C=N/NC(N)=S)cc1 | 5.6µM* | 6.3µM*
O=C(c1ccc(Cl)c(S(=O)(=O)N2CCOCC2)c1)N1CCc2ccccc2C1 | ? | -17%
COc1ccc(OC)c(NC(=O)C(C)N2c3cccc4cccc(c34)S2(=O)=O)c1 (centres undefined) | -16% | i
Cc1nnsc1-c1c(C(=O)N2CCOCC2)c(C)nn1-c1ccccc1 | -6% | i

Screens from PubChem BioAssay.
